Screening results from PubChem BioAssay.
Calb biofilm kill: mixture kills Candida albicans biofilm cells | C. albicans biofilm persisters + clotrimazole, fluorescence viability; primary screen in compound mixtures of four per well | inhibition, % at 7.6 µM | 120,000 tested, 0.02% active;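 active means inhibition above 30.3% in the primary screen of four-compound pools, then above 30% when the compound was retested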;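 further: compounds exposed to preformed 24 h biofilms for 48 h; the number belongs to the whole pool; some results filed as inactive read as strong as hits; inactives centre near 12; 0% = biofilm with clotrimazole alone and 100% = kill control; retested singly at about 60 µM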
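System: C. albicans CAF4-2 wild-type biofilms; Medium: RPMI/MOPS medium, pH 7.0; Reagent: Clotrimazole, 50 µg/mL; Times: biofilm formation 24 h, compound exposure 48 h, 37 °C; Detection: 2-h Alamar Blue fluorescence, 535/590 nm excitation/emission; Evaluation: percent inhibition of biofilm viability.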
* hit, by the source's call. Some of the compounds tested, so the mix of outcomes need not match the whole.

SMILES	Calb biofilm kill
O=C(NNc1nc2ccc(Cl)cc2s1)c1cc(-c2cccs2)nc2ccccc12	6
CC(C)(C)S(=O)(=O)c1cnc(-c2ccc(Cl)cc2)nc1N	27
N#Cc1ccc(S(=O)(=O)N2CCc3[nH]c4ccc(F)cc4c3C2)cc1	24
CC(C)C(=O)Nc1ccc(NC(=S)NC(=O)c2cc3ccccc3o2)cc1	10
O=C(CNC1CCCCC1)Nc1cc(S(=O)(=O)N2CCOCC2)ccc1Cl	15
Nc1cc(=O)[nH]c(SCC(=O)Nc2cc(S(=O)(=O)N3CCOCC3)ccc2Cl)n1	7
COc1ccccc1CNC(=O)CSc1nn2c(=O)c(C(C)(C)C)nnc2s1	14
COc1ccc(NC(=S)N(Cc2ccc(N(C)C)cc2)Cc2ccco2)cc1	0
O=C1C2CCCN2C(=O)N1CCCCN1CCN(CCO)CC1 (stereo unspecified)	12
Cc1cc(/C=N/n2c(COc3ccccc3C)nc3ccccc3c2=O)c(O)c([N+](=O)[O-])c1	7
CCc1ccccc1-n1c(SCC(=O)N2CCCC2)nc2[nH]ncc2c1=O	2
Cc1ccsc1C1CC(=O)OC2=C1C(=O)CC(C)(C)C2 (stereo unspecified)	28
O=S(=O)(ON(c1ccccc1)S(=O)(=O)c1ccccc1)c1ccccc1	17
CCOc1cc(C(=O)N/N=C/c2ccsc2)cc(OCC)c1OCC	12
COCc1cc(=O)[nH]c(-c2ccccc2OC(F)(F)F)n1	15

Next section
SMILES	Calb biofilm kill
CCCn1c(O)c(N=NC(=O)c2cccnc2)c2cc(Br)ccc21	-2
Cc1ccc(OCC(=O)Nc2ccc(N3CCN(S(C)(=O)=O)CC3)cc2)cc1	23
CC(=O)C1=C(O)C(=O)N(Cc2cccnc2)C1c1ccccc1 (stereo unspecified)	7
Cc1cc(C)c2c(=O)n(CC(=O)Nc3ccc(Cl)cc3)sc2n1	14
O=C(Nc1ccc(N2CCOCC2)cc1)c1ccc([N+](=O)[O-])cc1	11
O=C(CCc1ccccc1)NNC(=S)Nc1ccc(F)cc1	5
Cc1csc(NC(=O)CSc2nnc(NC(=O)C3CC(=O)N(c4ccccc4)C3)s2)n1 (stereo unspecified)	2
CC(=O)Nc1ccc(N2C(=O)CC(N3CCSCC3)C2=O)cc1 (stereo unspecified)	2
CCNC(=O)C1=C(O)c2sccc2N(C)S1(=O)=O	28
Cc1cc(NC(=S)Nc2cccc3ccccc23)n[nH]1	20
CC1(C)CC(=O)/C(=C(\O)CCCN2C(=O)c3ccccc3C2=O)C(=NCCO)C1	12
Oc1ccc2cc(Br)ccc2c1CN1CCCC1	11
Cc1cc(C)c(NS(=O)(=O)c2ccc(NC(=O)/C=C/C(=O)O)cc2)c(C)c1	25
Cc1cc(NC(=O)Cn2nc([N+](=O)[O-])c(Br)c2C)no1	10
Cc1ccccc1NC(=S)N(Cc1ccco1)C(C)c1cccs1 (stereo unspecified)	16

The list goes on, overlapping the part above by three compounds.
SMILES	Calb biofilm kill
Cc1cc(C)c(NS(=O)(=O)c2ccc(NC(=O)/C=C/C(=O)O)cc2)c(C)c1	25
Cc1cc(NC(=O)Cn2nc([N+](=O)[O-])c(Br)c2C)no1	10
Cc1ccccc1NC(=S)N(Cc1ccco1)C(C)c1cccs1 (stereo unspecified)	16
COc1ccc(Nc2ncnc3sc(-c4ccccc4)cc23)cc1OC	9
Cc1cccc2sc(NNC(=O)c3cc(=O)c4ccccc4o3)nc12	9
COc1ccc(C(=O)NNS(=O)(=O)c2ccc(C)cc2)cc1	1
CCN(CC)c1ccc(C=Nc2ccc(C)cc2C)c(O)c1	7
COc1ccc(S(=O)(=O)NN(C)c2ncc(C(F)(F)F)cc2Cl)cc1	6
Cc1noc(C)c1COC(=O)c1ccccc1NC(=O)c1ccco1	5
COC(=O)c1ccc(C)c(NC(=O)CCc2ccc(OC)cc2)c1	1
COc1ccc(NC(=O)C(c2ccc(C)cc2)N(C)C(=O)Cc2cccs2)cc1 (stereo unspecified)	14
COC(=O)c1ccc(NC(=O)C(=O)N2CCN(C(=S)Nc3cccc(OC)c3)CC2)cc1	15
CCOC(=O)c1cccc(NC(=S)N2CCN(c3ncc4c(=O)c(C(=O)O)cn(CC)c4n3)CC2)c1	5
CCS(=O)(=O)c1ccc(O)c(NC(=O)Nc2ccc(C(C)(C)C)cc2)c1	13
CCCOC(=O)c1ccc(NC(=O)c2ccccc2OC)cc1	27
NC(=O)c1cccnc1Oc1ccc(Cl)cc1Cl	13
O=C1CC(c2ccc(F)cc2)C(n2cncn2)C(O)=C1C1NCCc2ccccc21 (stereo unspecified)	9
CC1CCN(c2ccc([N+](=O)[O-])c(SCCO)c2)CC1	8

(next part)
SMILES	Calb biofilm kill
Cc1ccnc(Sc2ccc([N+](=O)[O-])cn2)n1	53
Cc1nnc(SCC(=O)NN2C(=O)NC3(CCCCC3)C2=O)s1	10
Cc1ccc2c(c1)NC(=O)c1cccc([N+](=O)[O-])c1CO2	17
CCn1c(Cc2ccccc2)nnc1SCC(=O)N1CCCCC1	8
CCOC(=O)/C(=N/Nc1ccccc1)Sc1nnc(CCc2ccccc2)n1-c1ccccc1	5
C=CCN1C(=O)/C(=C/c2ccc(OC)cc2)S/C1=N/c1nccs1	22
Cc1cc2nc(-c3ccc(SCC(=O)NC(C)C)nc3)[nH]c2cc1C	16
CCn1c(SCC(=O)N/N=C/c2ccccc2OCC(=O)O)nnc1-c1ccccc1	19
COCCNC(=O)C(c1ccc(Cl)cc1)N(C(=O)Cn1nnc2ccccc21)c1cccnc1 (stereo unspecified)	16
O=C(NC1CC1)C1CCN(C2CCN(C(=O)/C=C/c3cccc(F)c3F)CC2)CC1	28
S=C(NNc1cccc(Cl)c1)NC1CCCCC1	15
Cc1ccc(NC(=O)C2OCCc3ccccc32)cc1 (stereo unspecified)	-4
O=C1COc2ccc(C(=O)COC(=O)CCSc3ccccc3)cc2N1	4
CSc1nc2ccc(NC(=O)c3ccc(Cl)s3)cc2s1	16
CN1CCN(C(=O)C2=C[C@@H](c3ccccc3)C[C@@H](OCc3ccc(CO)cc3)O2)CC1	14

(cont.)
SMILES	Calb biofilm kill
COc1ccc(CCn2c(-c3ccc(F)cc3)nc3c(c(=O)c4ccccc4n3C)c2=O)cc1OC	8
COC(=O)/C(=C\C=C\c1ccccc1)NC(=O)c1ccccc1	-8
Cc1cc(Oc2ccc(-c3nnc(-c4ccccc4)o3)cc2[N+](=O)[O-])ccc1Cl	11
Cn1c(SCC(=O)NCc2ccc(F)cc2)nc2c([nH]c3ccccc32)c1=O	14
Cc1cc2n(c(=O)c1C#N)CCCN2c1cccc(Cl)c1	6
Cc1cc(C)c2oc(C(=O)N(Cc3ccccc3)c3ccccn3)cc(=O)c2c1	-1
CCOC(=O)c1ccc(-n2ccnc2)c(NC(=O)c2ccc(Cl)cc2)c1	15
Cc1cc(=O)n(CCc2ccccc2)c(O)c1C#N	17
COc1ccc(Cc2nnc(Nc3ccc(Cl)cc3)[nH]c2=O)cc1	18
Cc1oc(-c2cccc(Br)c2)[n+]([O-])c1C	14
CC(C)(C)c1ccc(C(=O)N/N=C2\C3CN4CCN(C3)CC2(c2ccccc2)C4)cc1	20
COc1ccc(N(C)S(=O)(=O)c2cccc(C(=O)OCC(=O)NCc3ccccc3OC)c2)cc1	10
CCOC(=O)N1CCN(CC(=O)Nc2cc(OC)c(OC)cc2C#N)CC1	22
O=C(NN1C(=O)C2C(C1=O)C1C=CC2C12CC2)c1ccccc1Cl (stereo unspecified)	4
COc1cc(C(=O)OCCCN2CCOCC2)ccc1O	-1

The listing continues:
SMILES	Calb biofilm kill
COc1ccc(C(=O)CSc2nnc(CN3CCCCC3)n2-c2ccc(F)cc2)cc1OC	18
CCN(CCCn1c(=S)[nH]c2ccc(N3CCOCC3)cc2c1=O)c1ccccc1	19
COCCN(Cc1cc2cc3c(cc2nc1Cl)OCO3)C(=O)c1cccc(C)c1	5
Cc1ccc(/C=C2\SC(=S)N(CCC(=O)NNS(=O)(=O)c3ccccc3)C2=O)cc1	15
CCCCCOc1ccc(Cn2ccnc2)cc1[N+](=O)[O-]	12
CCN(CC)CCNc1ncnc2c1sc1nc(N3CCOCC3)c3c(c12)CCCC3	21
COc1ccc(C(=O)N/N=C/c2ccc(SC)cc2)cc1	8
C#Cc1ccc([C@H]2C=C(C(=O)N3CCOCC3)O[C@@H](OCC)[C@@H]2CCCO)cc1	17
CCOc1ccc(C(=O)Nc2nnc(NC(=S)Nc3ccccc3)s2)cc1	8
CCC(CO)NCC(O)COCc1ccc2c(c1)OCO2 (stereo unspecified)	11
COc1cc(/C=C2\S/C(=N/S(=O)(=O)c3ccccc3)NC2=O)c([N+](=O)[O-])cc1OC	6
O=C(NCc1cccs1)c1cc(-c2ccc(O)cc2)on1	3
CCOC(=O)CC1=NN(c2ccccc2)C(=O)/C1=C\c1ccc(OC)cc1OC	11
O=C1C2CC=CCC2C(=O)N1n1cnnc1 (stereo unspecified)	13
CC(C)CNC(=O)CSc1nnc2ccccn12	13

Remaining list, next part:
SMILES	Calb biofilm kill
O=C(O)CC/C(=N/NC(=O)c1cn(-c2ccccc2)nc1-c1ccccc1)C(=O)O	7
Nn1c(Cc2ccc(Br)cc2)n[nH]c1=S	9
Cc1cc(C)c(S(=O)(=O)Nc2ccc3c(c2)CCC3)c(C)c1	3
CCc1c(C)sc(NC(=S)N2CCN(CC)CC2)c1C(=O)OC	12
CCc1cc(CN2CCOCC2)c(NC(=O)c2ccccc2)s1	9
CCNc1c(NCC)c(=O)c1=O	9
O=C(C1=C[C@H](C2CC2)C[C@H](OCCCCO)O1)N1CCN(Cc2ccccc2)CC1	12
Cn1c(SCC(=O)Nc2nc(C(C)(C)C)cs2)nnc1C1CC1	9
O=C(CCc1nnc(Cc2ccc3c(c2)OCO3)o1)N(CC1CCC1)CC1CCCO1 (stereo unspecified)	14
O=C(CCCN1C(=O)/C(=C/c2ccco2)SC1=S)Nc1cccc(C(=O)O)c1	-2
COc1ccc(S(=O)(=O)N2CCCC2)cc1C(=O)N1CCOCC1	9
COc1ccc(N=Nc2n(C)c3ccccc3[n+]2C)cc1	28
O=C(N/N=C/c1ccc2nccnc2c1)c1ccccc1O	9
COc1cc(Cl)c(C)cc1NC(=S)NN	6
FC(F)(F)c1cccc(/C=N/NC(=S)NC2CCCCC2)c1	9

New compounds follow:
SMILES	Calb biofilm kill
OCCC1CN(Cc2cnc(N3CCCC3)s2)CCN1Cc1ccccc1 (stereo unspecified)	10
CN(C)CCNC(=O)Nc1ccc([N+](=O)[O-])cc1	12
Clc1ccc(-c2nc3n(n2)Cc2ccccc2-3)cc1	-9
CC(C)(C)OC(=O)NC(Cc1ccccc1)C(=O)O (stereo unspecified)	8
O=C(NCCNc1nccc(C(F)(F)F)n1)c1cccc(C(F)(F)F)c1	8
COc1ccccc1OCCn1cc(/C=C(\C#N)C(=O)NCc2ccco2)c2ccccc21	13
CCOC(=O)c1ccccc1-c1csc(N)n1	15
CCCCN(CCCC)Cc1ccc(C(=O)NN)o1	23
Cc1ccc(C)c(NC(=O)CN(C)S(=O)(=O)c2cccc3cccnc23)c1	30
COc1ccc(NC(=S)N2CCN(C(=O)c3ccccc3)CC2)cc1	3
CCOC(=O)COc1cccc2c(=O)n(CC(N)=O)ccc12	11
NNC(=O)c1ccc(Cn2cccn2)o1	15
O=C(CNc1cccc2ccccc12)N/N=C/c1ccc([N+](=O)[O-])o1	1
CCOC(=O)c1cc(-c2ccc3c(c2)OCCO3)n[nH]1	18
COc1ccc(CN=C(C#N)C2=C(O)c3ccccc3C2=O)cc1	21

5 structures from above, sorted by SMILES length, lowest first:
SMILES	Calb biofilm kill
CCOC(=O)c1ccccc1-c1csc(N)n1	15
CC(C)(C)OC(=O)NC(Cc1ccccc1)C(=O)O (stereo unspecified)	8
CN(C)CCNC(=O)Nc1ccc([N+](=O)[O-])cc1	12
OCCC1CN(Cc2cnc(N3CCCC3)s2)CCN1Cc1ccccc1 (stereo unspecified)	10
O=C(CNc1cccc2ccccc12)N/N=C/c1ccc([N+](=O)[O-])o1	1

Continued:
SMILES	Calb biofilm kill
Cc1ccc(C2CCN(C(=S)NC(C)(C)C)C2)cc1 (stereo unspecified)	22
O=C(CCC(=O)N/N=C/c1ccco1)N/N=C/c1ccco1	23
COc1ccc(CSCC(=O)NN=C2CCN(C)CC2)cc1	2
N#Cc1ccc(C(=O)Nc2cc(S(=O)(=O)Nc3ccc(Cl)cc3)ccc2N2CCCCC2)cc1	6
CCOc1ccc(CO/N=C/c2c(C)[nH]c(=O)[nH]c2=O)cc1	25
NC(N)=NS(=O)(=O)c1ccc(NC(=S)NC(=O)c2ccc(Br)cc2)cc1	17
CCN(CC)C(=O)Oc1ccc(Br)c2ccccc12	13
CC(C)(CN1CCN(Cc2ccccc2)CC1)NS(=O)(=O)c1ccc(Cl)cc1	30
Cc1ccc(NNC(=O)C2CCC2)cc1C	18
COC(=O)c1ccccc1NC(=S)N1CCN(c2ccccn2)CC1	13
CC(=O)/C(=C/c1ccccc1)C(=O)Nc1ccccc1C	9
COc1ccc2[nH]cc(S(=O)(=O)c3ccc(C)cc3)c2c1	10
FC(F)(F)c1ccc(C2Nc3cccc4cccc(c34)N2)cc1	18
Cc1ccc(NC(=O)c2cc(S(=O)(=O)N3CCOCC3)c(Br)s2)cc1	19
C/C(=N\OCc1cccc(C(=O)O)c1)c1ccc(Cl)cc1	8
